Source: PubChem (several laboratories)
PrP UTR inh: suppresses PrP 5' UTR mRNA reporter expression; cell-based PrP 5' UTR mRNA reporter, plate reader; inhibition, % (concentration not given with the values); 0.35% of 340,000 active; AID 488862;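 active = every replicate at 50% or more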;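 also: 0 = median of the neutral control wells; tested in H4 reporter cells; numbers are from one replicate; inactives centre near -14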
Mtb hypoxia rep: inhibitors of hypoxia-regulated fluorescent reporter in Mycobacterium tuberculosis. M. tuberculosis hypoxia-regulated fluorescent reporter, fluorescence. fluorescence inhibition, % (test concentration not listed). 0.1% of 300,000 active. AID 1159583;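 active = 35 to 45% if threefold the growth effect, above 45% if 1.5-fold the growth effect; inactive = the rest, general growth blockers included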;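 also: wells of about 50 µL received 100 nL stock; 0% = vehicle wells and 100% = reference inhibitor wells; whole bacteria with a GFP reporter of the hypoxia response; strong numbers were not always called active; many hits fall short of the cut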
RN4220 kill: kills Staphylococcus aureus RN4220; inhibition, % (no concentration beside the values); AID 1259311; 0.33% of 330,000 active; S. aureus RN4220 growth, OD600, 16 h;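 active = z-score of -3 or lower and OD600 up to 0.18 on both plates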;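 also: plate controls were untreated cells for no effect and reference antibiotic for full effect; stock transfer was 100 nL into about 80 µL; one replicate is shown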
ugtP null kill: compounds lethal to S. aureus RN4220 ugtP deletion mutant | OD600 growth, 16 h; some inactives read as strong as hits | growth inhibition, % (test concentration not listed) | 0.54% of 330,000 active | AID 1259309;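 active = z-score under -3 and OD600 up to 0.15 on both plates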;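 also: plate controls were untreated wells for no effect and antibiotic for full effect; wells of about 80 µL received 100 nL stock; the first replicate is given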
BJeLR lethal: BJeLR cell viability loss. inhibition, % (no concentration beside the values). 0.17% of 300,000 active. BJeLR (HRASV12) viability, CellTiter-Glo ATP luminescence, 48 h; reference of the scale not given here. AID 1554;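 active = replicate mean above 50%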;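 also: 50 nL library stock added to about 25 µL; numbers are from one replicate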
Autofluor counter: counter-screen for toxin protease inhibitors: compound fluorescence. compound autofluorescence counterscreen, microsphere flow cytometry; active compounds read high. fluorescence intensity (no concentration beside the values). 3.1% of 360,000 active;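 active = at least 3 SD above the mean of all compounds, about 16000 in these data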;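 also: 100 nL of 1 mM stock went into each well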
Mtb hypoxia rep growth: further read-out of Mtb hypoxia rep, marked with its call; growth inhibition, %; measured here: M. tuberculosis growth (absorbance);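 0% = vehicle and 100% = reference antibiotic; read after six days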
Starred values were filed as active, the others as inactive.

Preview, 3 compounds:
`Cc1ccc(C=NNC(=O)c2nnn(-c3nonc3N)c2CSc2ccc(Cl)cc2)cc1` gave Mtb hypoxia rep 8, RN4220 kill 3.2, ugtP null kill 19 and Mtb hypoxia rep growth 1.
`COc1ccc(CN2CC(=O)N(c3cc(Cl)ccc3C)C2=S)cc1OC` gave PrP UTR inh -7, Mtb hypoxia rep 7, RN4220 kill 4.0, ugtP null kill -3, BJeLR lethal -8, Autofluor counter 4386 and Mtb hypoxia rep growth 9.
O=C(Nc1ccc([N+](=O)[O-])cn1)C1CC1 was read as PrP UTR inh 3, Mtb hypoxia rep 13, RN4220 kill 5.7, ugtP null kill 6, BJeLR lethal -21, Autofluor counter 11366 and Mtb hypoxia rep growth 9.

This part in full, repeating the preview:
`Cc1ccc(C=NNC(=O)c2nnn(-c3nonc3N)c2CSc2ccc(Cl)cc2)cc1` gave Mtb hypoxia rep 8, RN4220 kill 3.2, ugtP null kill 19 and Mtb hypoxia rep growth 1.
`COc1ccc(CN2CC(=O)N(c3cc(Cl)ccc3C)C2=S)cc1OC` gave PrP UTR inh -7, Mtb hypoxia rep 7, RN4220 kill 4.0, ugtP null kill -3, BJeLR lethal -8, Autofluor counter 4386 and Mtb hypoxia rep growth 9.
O=C(Nc1ccc([N+](=O)[O-])cn1)C1CC1 was read as PrP UTR inh 3, Mtb hypoxia rep 13, RN4220 kill 5.7, ugtP null kill 6, BJeLR lethal -21, Autofluor counter 11366 and Mtb hypoxia rep growth 9.
Nn1c(SCC(=O)NCC2CCCO2)nnc1-c1ccc(OC(F)F)cc1 (stereo not given) was read as PrP UTR inh -3, Mtb hypoxia rep 0, RN4220 kill -0.6, ugtP null kill -2, BJeLR lethal 4, Autofluor counter 4614 and Mtb hypoxia rep growth 2.
`COc1ccc([C@@H]2CC=C(C(=O)O)[C@H](c3ccc(C)cc3)N2S(=O)(=O)c2ccccc2C)cc1` gave PrP UTR inh -17, Mtb hypoxia rep 2, RN4220 kill 22, ugtP null kill -7, Autofluor counter 3945 and Mtb hypoxia rep growth 7.
Screening Cc1ccccc1N1CCN(CC(=O)Nc2nc(C)c(C(=O)N(C)C)s2)CC1 returned PrP UTR inh -72, Mtb hypoxia rep 9, RN4220 kill 3.7, ugtP null kill 8, BJeLR lethal -6, Autofluor counter 3925 and Mtb hypoxia rep growth 4.
Screening COc1ccccc1Nc1nnc(SCc2cc(=O)n3ccsc3n2)s1 returned PrP UTR inh -24, Mtb hypoxia rep -1, RN4220 kill 3.8, ugtP null kill 14, BJeLR lethal -2, Autofluor counter 4766 and Mtb hypoxia rep growth 19.
CC(=O)Nc1ccc2oc(-c3ccccc3Br)nc2c1 was read as PrP UTR inh -65, Mtb hypoxia rep -1, RN4220 kill 4.3, ugtP null kill -5, BJeLR lethal -7, Autofluor counter 9213 and Mtb hypoxia rep growth 2.
For Cc1cccc(C)c1N(CC(=O)N(C)Cc1ccccc1)S(C)(=O)=O the results were PrP UTR inh -26, Mtb hypoxia rep 4, RN4220 kill 7.9, ugtP null kill 3, BJeLR lethal -10, Autofluor counter 3182 and Mtb hypoxia rep growth -4.
For Cc1cc(Nc2ccccc2C(=O)O)n(-c2ccc([N+](=O)[O-])cc2)n1 the results were PrP UTR inh -10, Mtb hypoxia rep -6, RN4220 kill 5.4, ugtP null kill 0, BJeLR lethal -2, Autofluor counter 4457 and Mtb hypoxia rep growth 4.
Screening CCOC(=O)c1ccc(NC(=O)CSc2nc(NC(=O)c3ccccc3)c3c(C)c(C)oc3n2)cc1 returned PrP UTR inh -14, Mtb hypoxia rep -7, RN4220 kill -7.5, ugtP null kill -8, BJeLR lethal -14 and Mtb hypoxia rep growth -7.
C/C(=N\OC(=O)Nc1ccccc1)c1cnn(-c2cc(C(F)(F)F)cc(C)n2)c1C was read as PrP UTR inh -14, BJeLR lethal -6 and Autofluor counter 3661.
C#Cc1ccc([C@H]2C=C(C(=O)NC3CC3)O[C@@H](OCC)[C@@H]2CCCO)cc1 was read as PrP UTR inh -19, BJeLR lethal -2 and Autofluor counter 3628.
Screening O=S(=O)(N/N=C\c1ccc(-c2ccccc2Cl)o1)c1ccccc1 returned PrP UTR inh 1, BJeLR lethal -1 and Autofluor counter 4359.
Screening CCOc1cc(/C=N/NC(=O)c2ccc(=O)n(C)c2)ccc1O returned PrP UTR inh -21, BJeLR lethal -18 and Autofluor counter 4205.
Screening O=C(COC(=O)CCc1nc2ccccc2s1)Nc1ccc(S(=O)(=O)N2CCOCC2)cc1 returned PrP UTR inh -2, RN4220 kill -1.1, ugtP null kill 7, BJeLR lethal -6 and Autofluor counter 3690.
`CCOC(=O)c1c(C2CC2)csc1NC(=O)COC(=O)c1cc(OC)c(OC)cc1[N+](=O)[O-]` gave PrP UTR inh -12, Mtb hypoxia rep -1, RN4220 kill 4.1, ugtP null kill 21, BJeLR lethal 1, Autofluor counter 2241 and Mtb hypoxia rep growth 4.
Screening Cc1cc(C)n(S(=O)(=O)c2ccc(Cl)cc2)n1 returned PrP UTR inh 2, Mtb hypoxia rep 8, RN4220 kill 3.9, ugtP null kill -1, BJeLR lethal -19, Autofluor counter 3457 and Mtb hypoxia rep growth 2.
Screening COC(=O)c1cc(Br)c(=O)n(CCN(C(C)C)C(C)C)c1 returned PrP UTR inh 5, Mtb hypoxia rep 5, RN4220 kill 2.5, ugtP null kill 1, BJeLR lethal -8, Autofluor counter 3309 and Mtb hypoxia rep growth 5.
For CCCN(CCC)C(=O)c1ccc2c(c1)S(=O)(=O)c1ccccc1C2=O the results were PrP UTR inh -9, Mtb hypoxia rep 7, RN4220 kill 3.2, ugtP null kill 0, BJeLR lethal -1, Autofluor counter 6219 and Mtb hypoxia rep growth -9.
`CC1(C)Cc2c(sc3c2c(N)nc(=S)n3Cc2ccccc2)CO1` gave Mtb hypoxia rep -5, RN4220 kill 3.1, ugtP null kill 11, BJeLR lethal -4 and Mtb hypoxia rep growth 3.
`Cc1ccc(NC(=O)C2CCN(S(=O)(=O)c3c(C)[nH]c(=O)[nH]c3=O)CC2)cc1` gave PrP UTR inh -12, Mtb hypoxia rep 8, RN4220 kill 3.2, ugtP null kill 2, BJeLR lethal -2, Autofluor counter 4532 and Mtb hypoxia rep growth 14.
`CCCc1cc(=O)[nH]c(SCC(=O)NCC2COc3ccccc3O2)n1` (stereo not given) gave PrP UTR inh -6, Mtb hypoxia rep 2, RN4220 kill 4.4, ugtP null kill 2, Autofluor counter 3007 and Mtb hypoxia rep growth 0.
For CCc1nnc(NC(=O)CC(CN(C)S(=O)(=O)c2ccccc2)c2ccccc2)s1 (stereo not given) the results were PrP UTR inh -26, Mtb hypoxia rep 8, RN4220 kill 1.1, ugtP null kill 16, BJeLR lethal 3, Autofluor counter 5885 and Mtb hypoxia rep growth 4.
`C=CCNC(=O)CC12CC3CC(C1)CC(CC(=O)NCC=C)(C3)C2` gave PrP UTR inh 0, Mtb hypoxia rep 1, RN4220 kill 0.5, ugtP null kill 5, BJeLR lethal 4, Autofluor counter 4728 and Mtb hypoxia rep growth -3.
For COCCCNc1nc2ccccc2nc1NS(=O)(=O)c1ccccc1 the results were PrP UTR inh -12, Mtb hypoxia rep 5, RN4220 kill 5.3, ugtP null kill -1, BJeLR lethal -1, Autofluor counter 4168 and Mtb hypoxia rep growth 5.
Screening O=C1c2cccnc2C(=O)N1Cc1ccc(S(=O)(=O)NCc2ccco2)s1 returned PrP UTR inh -5, Mtb hypoxia rep -3, RN4220 kill -1.7, ugtP null kill -6, BJeLR lethal 3, Autofluor counter 5756 and Mtb hypoxia rep growth 7.
For Cc1onc(-c2ccccc2Cl)c1C(=O)OCC(=O)N1CCCCC1 the results were PrP UTR inh -10, Mtb hypoxia rep 6, RN4220 kill 3.1, ugtP null kill 5, Autofluor counter 4179 and Mtb hypoxia rep growth -5.
For O=C(ON=Cc1cccc([N+](=O)[O-])c1)C1CC1 the results were Mtb hypoxia rep 5, RN4220 kill 22, ugtP null kill 10 and Mtb hypoxia rep growth 7.
For COCCOc1cc(NC(=O)c2ccccc2)c(Cl)cc1Cl the results were PrP UTR inh -33, Mtb hypoxia rep 5, RN4220 kill 1.5, ugtP null kill 1, BJeLR lethal -5, Autofluor counter 4590 and Mtb hypoxia rep growth 7.

A stretch taken from the entries so far, for reference:
For O=C(ON=Cc1cccc([N+](=O)[O-])c1)C1CC1 the results were Mtb hypoxia rep 5, RN4220 kill 22, ugtP null kill 10 and Mtb hypoxia rep growth 7.
For COCCOc1cc(NC(=O)c2ccccc2)c(Cl)cc1Cl the results were PrP UTR inh -33, Mtb hypoxia rep 5, RN4220 kill 1.5, ugtP null kill 1, BJeLR lethal -5, Autofluor counter 4590 and Mtb hypoxia rep growth 7.

Continuation:
Screening COc1ccc(NC(=O)COC(=O)[C@@H]2CCCN2C(=O)c2cccs2)cc1 returned PrP UTR inh -34, Mtb hypoxia rep 13, RN4220 kill 4.1, ugtP null kill -11, BJeLR lethal 3, Autofluor counter 8795 and Mtb hypoxia rep growth 4.
`O=C(NCCO)c1cccc(Cl)c1` gave PrP UTR inh -6, Mtb hypoxia rep 6, RN4220 kill -0.8, ugtP null kill -7, BJeLR lethal 7, Autofluor counter 9086 and Mtb hypoxia rep growth 9.
Screening Cc1ccc(C(=O)NN=Cc2ccc(N3CCOCC3)cc2)c(C)c1 returned Mtb hypoxia rep 1, RN4220 kill 0.8, ugtP null kill 7 and Mtb hypoxia rep growth -2.
Screening CCOc1ccc(NC(=O)CCc2nnc3ccc(N4CCN(C)CC4)nn23)cc1 returned PrP UTR inh -1, Mtb hypoxia rep 8, RN4220 kill 2.8, ugtP null kill 4, BJeLR lethal 7, Autofluor counter 4693 and Mtb hypoxia rep growth -6.
`CCOC(=O)N/N=C\c1cccc(OC)c1` gave PrP UTR inh -55, BJeLR lethal 1 and Autofluor counter 4185.
CCS(=O)(=O)C1=NSC2=NC(=O)/C(=C\c3ccc(OS(=O)(=O)c4ccccc4)cc3)C(=N)N21 was read as PrP UTR inh -22, BJeLR lethal 3 and Autofluor counter 4232.
Screening O=S(=O)(Nc1cccnc1)c1cccnc1 returned PrP UTR inh -9, Mtb hypoxia rep 15, RN4220 kill -1.0, ugtP null kill -1, Autofluor counter 2941 and Mtb hypoxia rep growth 4.
COc1ccc(C2SC[C@@H](C(=O)O)N2C(C)=O)cc1 (stereo not given in full) was read as PrP UTR inh -16, Mtb hypoxia rep 2, RN4220 kill 11, ugtP null kill 5, BJeLR lethal -1, Autofluor counter 3023 and Mtb hypoxia rep growth 16.
For COC(=O)c1ccc(OC(=O)CCN2C(=O)C3C4c5ccccc5C(c5ccccc54)C3C2=O)cc1 (stereo not given) the results were PrP UTR inh 1, Mtb hypoxia rep 11, RN4220 kill 12, ugtP null kill 3, BJeLR lethal 0, Autofluor counter 2269 and Mtb hypoxia rep growth 1.
For Fc1ccc2cnc(CCOC3CCCCO3)cc2c1 (stereo not given) the results were Mtb hypoxia rep 9, RN4220 kill 4.9, ugtP null kill 4 and Mtb hypoxia rep growth 7.
Screening COC(=O)CCc1c(C)c(C(=O)c2cc(OC)c(OC)c(OC)c2)c2ccccn12 returned PrP UTR inh -37, Mtb hypoxia rep 1, RN4220 kill 2.4, ugtP null kill 5, BJeLR lethal 5, Autofluor counter 2983 and Mtb hypoxia rep growth 1.
`COc1ccc(OC)c(Nc2c3c(nc4ccccc24)CCC3)c1` gave PrP UTR inh 74*, Mtb hypoxia rep 5, RN4220 kill -0.1, ugtP null kill 11, BJeLR lethal 47, Autofluor counter 3604 and Mtb hypoxia rep growth 3.
For N#CCCn1cc(C(=O)Nc2ccc([N+](=O)[O-])cc2)c(-c2ccccc2)n1 the results were PrP UTR inh -2, Mtb hypoxia rep 12, RN4220 kill 1.4, ugtP null kill 4, BJeLR lethal -4, Autofluor counter 3717 and Mtb hypoxia rep growth 11.
`CCCCNC(=O)N1CCOCCOCCN(C(=O)NCCCC)CCOCCOCC1` gave PrP UTR inh -15, RN4220 kill 5.3, ugtP null kill 10, BJeLR lethal 1 and Autofluor counter 3674.
Cc1ccc(C)c(NS(=O)(=O)c2cc(C(=O)Nc3ccccc3-c3ccccc3)ccc2C)c1 was read as PrP UTR inh -24, Mtb hypoxia rep 8, RN4220 kill 0.9, ugtP null kill -16, BJeLR lethal -1, Autofluor counter 10552 and Mtb hypoxia rep growth 10.

Rows were taken by chance; any-hit rate near 4%.
